A488 autofl: compound fluoresces in the A488 spectral region | hit rate 0.1% among 59,000 | max dye equivalency, M | compound autofluorescence, A488 spectral region, dye equivalency; stronger effect = higher value; active = above 10 nM dye equivalent; inconclusive = 1 to 10 nM; inactive = 1 nM or less; about half of its hits are not listed in these tables;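 note: highest value over a series up to 38 µM; compound alone in buffer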
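Compounds pin-transferred into 100 mM Tris buffer, pH 8.0, incubated 15 min at room temperature, then imaged with 480 nm excitation/540 nm emission filters. Fluorescence converted to Alexa 488 dye-equivalent concentration via an on-plate six-point A488 standard curve.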
Resorufin fluor: resorufin region autofluorescence; Compound fluorescence, resorufin region 547/598 nm, buffer; stronger effect = higher value; hit rate 0.04% among 59,000; max dye-equivalent concentration, M; active = above 10 nM dye equivalent; inconclusive = 1 to 10 nM; inactive = 1 nM or less; a few of its hits are not listed in these tables; note: highest value over a series up to 38 µM
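Compounds in 100 mM Tris, pH 8.0, incubated 15 min at room temperature, then fluorescence read at 547 nm excitation/598 nm emission. Signal converted to dye-equivalent concentration via an on-plate six-point resorufin standard curve, per compound concentration.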
TSHR agonist: TSH receptor (human) agonism | P16473 | HEK293-CNG-TSHR cells (CNG channel as cAMP sensor), membrane potential dye, cAMP | Potency, µM (titrated, usually from 57.1 µM), for inactives: top-dose activation, actives largely listed as activators | hit rate 0.48% among 73,000 | AID 926; active = well fitted activation curve of enough size with the parental cells flat; inconclusive = any curve in the parental cells; inactive = parental cells flat and receptor cells flat or falling; note: potency is the fitted concentration of half-maximal effect; % of control where 0% means no effect; weak receptor curves with flat parental cells got no call and are not listed
Target sequence (P16473 whole entry, looked up): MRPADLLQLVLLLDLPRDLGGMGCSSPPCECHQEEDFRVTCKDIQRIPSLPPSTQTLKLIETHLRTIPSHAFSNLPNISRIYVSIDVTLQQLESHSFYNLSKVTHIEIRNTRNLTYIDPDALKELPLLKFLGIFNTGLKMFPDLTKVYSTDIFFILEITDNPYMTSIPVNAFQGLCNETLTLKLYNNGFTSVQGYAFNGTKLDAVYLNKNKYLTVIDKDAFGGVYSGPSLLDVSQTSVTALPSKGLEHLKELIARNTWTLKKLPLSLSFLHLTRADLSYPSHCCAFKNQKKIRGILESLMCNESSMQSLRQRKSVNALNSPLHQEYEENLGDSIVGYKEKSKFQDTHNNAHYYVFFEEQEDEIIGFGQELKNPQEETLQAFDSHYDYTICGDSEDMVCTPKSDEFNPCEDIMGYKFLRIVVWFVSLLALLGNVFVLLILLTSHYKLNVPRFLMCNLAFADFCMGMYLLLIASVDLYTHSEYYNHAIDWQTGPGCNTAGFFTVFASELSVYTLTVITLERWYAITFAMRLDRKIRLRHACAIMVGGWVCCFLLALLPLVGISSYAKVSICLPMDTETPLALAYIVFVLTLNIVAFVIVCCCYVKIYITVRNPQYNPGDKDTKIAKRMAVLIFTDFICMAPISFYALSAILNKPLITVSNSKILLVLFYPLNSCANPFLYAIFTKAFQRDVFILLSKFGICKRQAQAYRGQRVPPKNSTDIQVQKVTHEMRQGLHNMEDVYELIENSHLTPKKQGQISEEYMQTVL
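HEK 293 cells stably expressing TSHR and a cAMP-gated CNG channel; parental CNG-only cells as counterscreen. Cells preloaded 60 min with membrane potential dye plus 100 uM RO 20-1724, then compound 30 min; fluorescence read at 590 nm.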
A647 fluor: compound autofluorescence in A647 spectral region; Compound fluorescence, A647 channel (570/671 nm), Tris buffer; max dye-equivalent concentration, M; 59,000 tested, under 10 active; active means above 1 µM dye equivalent; inconclusive means 0.1 to 1 µM; inactive means 0.1 µM or less;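 note: values scaled relative to a standard on each plate; highest value over a series up to 38 µM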
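Spectral profiling of library compounds in pH 8.0 Tris: 15 min room-temperature incubation, single ex/em pair (570/671 nm), response normalized to Alexa 647 equivalents.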
AID923: qHTS Assay for Allosteric/Competitive Inhibitors of Caspase-1: Spectroscopic Profiling in AFC Spectral Region | compound fluorescence, AFC spectral region (405/520 nm); almost no hit is shown here | Potency, µM (doses to about 57.5 µM), for inactives: at the top dose fluorescence increase, usual class: activators | hit rate 1.1% among 75,000 | AID 923, 2007; active = well fitted activation curve with a large enough effect; inconclusive = small, poorly fitted or top-dose-only effect;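 note: potency is the fitted concentration of half-maximal effect; 0% is about no effect; scaled to a free AFC standard on each plate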
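Compound autofluorescence profiled at 405 nm ex/520 nm em during kinetic caspase 1 run (50 nM enzyme, 5 uM Ac-WEHD-AFC, HEPES pH 7.5, 10 mM DTT). Titration up to 57 uM; baseline from regression intercept, normalized to AFC standard curve.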
* hit, by the source's call; i = inactive; ? = inconclusive; / = no result given; [ ] = dose if it differs, or a comment. The list is partial; the hit share may differ from the screen's.

SMILES	A488 autofl	Resorufin fluor	TSHR agonist	A647 fluor	AID923
COc1ccc(S(=O)(=O)N2CCCC(C(=O)Nc3cccnc3)C2)cc1Cl (stereo not given)	i	i	22.3%	1.1e-09	1.9%
CCOC(=O)C1=C(C)NC(=O)NC1c1ccc(OC)c(Cl)c1 (stereo not given)	i	i	12.9%	2.47e-08	-0.5%
COc1cccc(-n2c(=O)[nH]cc(C(=O)Nc3ccc(NC(C)=O)cc3)c2=O)c1	/	/	0.9%	/	1.6%
CC1CC(C)CN(CCCNC(=O)c2cn(C)c3ccc(S(=O)(=O)N4CCCC4)cc3c2=O)C1 (stereo not given)	i	i	11.4%	1.7e-09	0.2%
Cc1occc1-c1nnc(SCC(=O)N2CCc3ccccc32)o1	i	i	13.0%	1.3e-08	0.2%
CC(CNS(=O)(=O)c1cc(Cl)ccc1Cl)CN(C)C (stereo not given)	i	i	0.8%	1e-09	-0.9%
Cc1ccccc1Cn1nc(C)c(NC(=O)c2nc3n(n2)C(C(F)F)CC(C)N3)c1C (stereo not given)	i	i	26.7%	1e-09	-2.2%
COCCn1nnnc1SCC(=O)c1ccc(F)cc1	i	i	-0.9%	4e-09	5.3%
CSCCC(NC(N)=O)C(=O)NCc1ccccc1Cl (stereo not given)	i	i	?	1e-09	-1.1%
CCN1CCCC1CNC(=O)Cn1cc2c(n1)CCC(C)C2 (stereo not given)	/	/	5.3%	/	3.5%
O=C(NCCSc1c[nH]c2ccccc12)c1ccco1	/	/	-6.6%	/	1.3%
O=C(c1cc2n(n1)C(C(F)(F)F)CC(c1ccco1)N2)N1CCc2ccccc2C1 (stereo not given)	i	i	-16.2%	4.23e-08	0.7%
CCOC(=O)Nc1sc(C(=O)N(CC)CC)c(C)c1C(=O)OCC	i	i	/	6.1e-09	-0.3%
Cn1c(=O)n(CCOc2ccccc2Cl)c2ccccc21	i	i	?	1.8e-09	1.9%
Cc1ccc2c(c1)nnn2C1CCN(S(=O)(=O)c2cccc(S(=O)(=O)N(C)C)c2)CC1	i	i	15.3%	3.86e-08	-0.5%
CCOC(=O)C1CCN(c2nc3ccccc3nc2C(C#N)C(=O)OC(C)COC)CC1 (stereo not given)	i	i	/	1.5e-09	/
CCN(CC)CCNC(=O)c1ccc(CS(=O)(=O)c2ccc(Br)cc2)o1	/	/	?	/	5.9%
CN(C)c1ccc(CNn2cnnc2)cc1	i	i	-1.4%	1e-09	-2.5%
Cc1ccc2c(c1)[nH]c1c(=O)n(CCCN3CCOCC3)cnc12	i	i	16.3%	1.5e-09	0.5%
CCCC(c1nnnn1Cc1ccco1)N1CCN(C2CCCC2)CC1 (stereo not given)	i	i	?	3.55e-08	-0.4%
COc1ccc(CCNC(=O)C2CCCN(S(=O)(=O)c3cccc4nonc34)C2)cc1OC (stereo not given)	i	i	-4.6%[11.4 µM]	3.33e-08	0.3%
Cc1cc(=O)[nH]c(-c2ccccc2O)n1	/	/	-0.2%	/	4.2%
Cc1csc(NC(=O)CSc2nnc(-c3ccoc3C)n2Cc2ccco2)n1	i	i	?	2.45e-08	1.7%
Cc1ccc(CC2CC(=O)N(c3ccncc3)C2=O)cc1 (stereo not given)	i	i	16.0%	1.7e-08	-2.1%
CCOCC(=O)Nc1cccc(NC(C)=O)c1	i	i	-1.8%	1e-09	-0.7%
Cc1ccccc1OCC(=O)NCCN(C)C	i	i	-1.1%	1.15e-08	-0.7%
COCCn1c(=O)c(-c2cn(C)c3ccccc23)nc2cnc(N3CCOCC3)nc21	i	i	-2.8%	8.6e-09	1.4%
COCc1[nH]nc2c1C1(CCSCC1)C(C#N)=C(N)O2	i	i	-0.8%	7.72e-08	2.1%
Cc1cccc(-n2ncc3c(NCc4ccc5c(c4)OCO5)ncnc32)c1	i	i	?	1e-09	0.1%
CCN(CC)S(=O)(=O)c1ccc(-c2nnc(SCC(=O)c3ccc(OC)cc3)o2)cc1	i	i	18.8%	6.4e-09	-0.8%
O=C(NCCCCO)C(F)(F)C(F)(F)C(F)(F)C(=O)NCCCCO	i	i	0.6%	2.87e-08	0.8%
CN1CC[C@@]2(CCN3CCc4c(oc5ccccc45)[C@@H]3C2)N(C)C1=O	i	i	4.8%	5.83e-08	-3.2%
Cc1c(N=Cc2ccncc2)c(=O)n(-c2ccccc2)n1C	i	i	1.2%[11.4 µM]	1e-09	1.5%
COc1ccc2nc(NCN3C(=O)c4ccccc4C3=O)sc2c1	i	i	4.0%[11.4 µM]	1e-09	6.8%[11.5 µM]
COCCN(C(=O)CCC(=O)Nc1ccccn1)C(C(=O)NC1CCCC1)c1ccc(OC)cc1 (stereo not given)	i	i	3.3%	4.4e-09	-1.1%
O=C(CSc1ncn(-c2ccccc2)n1)c1cccs1	i	i	16.2%	2.25e-08	3.8%
CN(C)c1ccc(C(=S)N2CCN(c3ccccc3)CC2)cc1	i	i	-2.6%	1e-09	-0.5%
CCN(CC)C(=O)c1cc2c(=O)n3cccc(C)c3nc2n1C	i	i	3.9%	3.2e-09	14.6%
CC(C)OC(=O)C(CC(=O)O)NCc1ccccc1 (stereo not given)	i	i	/	4.7e-09	/
COc1cc(C)c(S(=O)(=O)N2CCN(C)CC2)cc1C	i	i	2.7%	3.2e-09	0.4%

Compounds shown so far with a thiophene ring, fused or not (2):
SMILES	A488 autofl	Resorufin fluor	TSHR agonist	A647 fluor	AID923
CCOC(=O)Nc1sc(C(=O)N(CC)CC)c(C)c1C(=O)OCC	i	i	/	6.1e-09	-0.3%
O=C(CSc1ncn(-c2ccccc2)n1)c1cccs1	i	i	16.2%	2.25e-08	3.8%

(cont.)
SMILES	A488 autofl	Resorufin fluor	TSHR agonist	A647 fluor	AID923
CCCCC[C@H](O)/C=C/[C@H]1[C@H](O)CC(=O)[C@@H]1C/C=C\CCCC(=O)O	/	/	?	/	-1.9%
CC[n+]1ccc(C)c2cc(S(=O)C(F)(F)F)ccc21 (stereo not given)	i	i	-1.8%[11.4 µM]	3.2e-09	0.8%
Nc1nc(N2CCOCC2)nc(N(c2ccccc2)c2ccccc2)n1	/	/	?	/	-3.8%
CC1(C)CC(=O)C(C(=O)CCCCC(=O)C2C(=O)CC(C)(C)CC2=O)C(=O)C1	i	i	?	1.29e-08	1.2%
Cc1ccc(Cn2ccc(NC(=O)CCSc3nc(-c4ccco4)cc(C(F)(F)F)n3)n2)cc1	i	i	21.6%	1e-09	0.2%
COc1cccc2sc(N)nc12	/	/	2.0%	/	0.1%
FC(F)(F)c1cc(-c2ccco2)nc(-n2nc(C(F)(F)F)cc2C2CC2)n1	i	i	?	1e-09	-1.2%
Cc1ccc(C)c(C(=N)c2ccccc2Cc2ccccc2)c1	i	i	/	1.56e-08	3.5%[11.5 µM]
Cc1ccnc(SCCn2c(Br)nc3c2c(=O)n(C)c(=O)n3C)n1	i	i	-0.8%	7.8e-09	2.4%
N#Cc1cn(-c2ccccc2)nc1-c1ccccc1	i	i	?	4.9e-09	-0.7%
CC(C)(C)c1ccc(NC(=O)COC(=O)C2=COCCO2)cc1	i	i	-3.1%	1.12e-08	-2.6%
O=C(Nc1ccccc1)N1CCC(c2nc(-c3ccc(S(=O)(=O)N4CCOCC4)cc3)no2)CC1	i	i	2.9%	3.96e-08	0.1%
Cc1ccc(CNC2=NCCCCC2)n1C	i	i	1.4%	2.57e-08	1.3%
COc1ccc(NC(=O)C23CCC(C2)C(C)(C)C3=O)cc1 (stereo not given)	i	i	?	4.5e-09	-1.4%
COc1cc2c(cc1NC(=O)CSCC(=O)O)oc1ccccc12	i	i	-2.0%	5.27e-08	-1.6%
CC1CCCCN1CCNC(=O)C1CC(=O)N(c2ccc(F)c(Cl)c2)C1 (stereo not given)	i	i	-0.6%	4.4e-09	1.2%
O=c1c(-c2ccccc2)coc2c(CN3CCCC3)c(O)ccc12	i	i	-1.9%	1.76e-08	6.3%
COc1cccc(/C=C2/CN(C)CC3=C2OC(N)=C(C#N)C3c2cccc(OC)c2)c1 (stereo not given)	i	i	/	4.53e-08	/
COc1ccc(NC(=O)CSc2nncs2)cc1OC	i	i	-1.1%	1.78e-08	1.6%
CN1CCN(c2ncc3ncc(=O)n(CCc4ccccc4)c3n2)CC1	i	i	3.1%	2.6e-09	9.9%

In a second layout: results already given
Compound | A488 autofl | Resorufin fluor | TSHR agonist | A647 fluor | AID923
COc1ccc(NC(=O)C23CCC(C2)C(C)(C)C3=O)cc1 (stereo not given) | i | i | ? | 4.5e-09 | -1.4%
COc1ccc(NC(=O)CSc2nncs2)cc1OC | i | i | -1.1% | 1.78e-08 | 1.6%

Additional compounds follow:
SMILES	A488 autofl	Resorufin fluor	TSHR agonist	A647 fluor	AID923
Cc1ccc(S(=O)(=O)N2CCCC2C(=O)O)cc1 (stereo not given)	i	i	-4.4%	4.56e-08	-2.0%
COc1ccc(OCC(O)Cn2c(=N)n(CCN3CCCCC3)c3ccccc32)cc1 (stereo not given)	i	i	18.2%	1.5e-09	-0.1%
CC(C)(C)n1nnnc1C(c1ccccc1)N1CCc2ccccc2C1 (stereo not given)	i	i	?	6.7e-09	1.3%
Cc1cc(-n2ccc(=O)[nH]c2=O)nc(-c2ccccc2)n1	/	/	-1.0%	/	-0.9%
O=C(Nc1cccnc1)C1(F)C(F)(F)C(F)(F)C(F)(F)C(F)(F)C1(F)F	i	i	21.3%	2.99e-08	0.3%
CN(C)C(=O)CSc1nc2ccccc2c(=O)[nH]1	i	i	-7.6%	2.9e-09	-0.5%
O=C(CSc1nnc(-c2ccco2)n1CC1CCCO1)c1ccccc1 (stereo not given)	i	i	7.9%	2.76e-08	0.2%
O=C1c2ccccc2C(=O)N1c1ccccc1S(=O)C(F)(F)F (stereo not given)	i	i	16.0%	1e-09	14.2%
Cc1ccccc1CN1CCN(C(=O)c2cccc(F)c2)CC1	i	i	-8.7%	1e-09	-0.5%
CC(=O)Cc1nsc(NC(=O)c2ccc(COc3ccc(C)cc3)o2)n1	i	i	12.8%	5.6e-09	-0.5%

3 entries drawn at random from those above:
SMILES	A488 autofl	Resorufin fluor	TSHR agonist	A647 fluor	AID923
O=C1c2ccccc2C(=O)N1c1ccccc1S(=O)C(F)(F)F (stereo not given)	i	i	16.0%	1e-09	14.2%
Cc1ccc(S(=O)(=O)N2CCCC2C(=O)O)cc1 (stereo not given)	i	i	-4.4%	4.56e-08	-2.0%
CN(C)C(=O)CSc1nc2ccccc2c(=O)[nH]1	i	i	-7.6%	2.9e-09	-0.5%

Continued.
SMILES	A488 autofl	Resorufin fluor	TSHR agonist	A647 fluor	AID923
CCOc1ccc(OCC)c(NC(=O)CSc2nc3ccccc3c(=O)n2C)c1	i	i	?	4.1e-09	-2.4%
C=CCNC(=O)C(C)Sc1ccc(Cl)cc1 (stereo not given)	i	i	19.1%	1e-09	3.4%
O=C(O)c1ccccc1C(=O)N1CCN(c2ccccc2)CC1	i	i	-1.7%	1e-09	2.0%
COc1cccc2c1nc(C)c1cc(C)oc12	/	/	11.7%	/	1.0%
COC(=O)CSCC(=O)Nc1cc2c(cc1C(C)=O)OCO2	i	i	/	3.34e-08	/
CC(C)N(Cc1nc(-c2ccccc2)no1)C(=O)c1ccc(Cl)cc1	/	/	?	/	2.3%
Cc1cc(C)nc(SCc2csc(N)n2)n1	/	/	0.1%[11.4 µM]	/	-0.9%
Cc1ccccc1CSc1nc2n(n1)C(c1cccs1)C1=C(CCCC1=O)N2 (stereo not given)	i	i	?	1e-09	1.1%
CCC(=O)Nc1cccc(-c2nc3ccccc3o2)c1	i	i	-10.5%	1.46e-08	-2.1%
COc1cc(C2/C(=C(/O)c3ccc(F)cc3)C(=O)C(=O)N2CCCC(=O)O)ccc1O (stereo not given)	i	i	20.6%	1.75e-08	-1.0%
Cc1ccc(S(=O)(=O)Cn2nnnc2C(C)N2CCN(C(=O)c3ccco3)CC2)cc1 (stereo not given)	i	i	-3.5%	4.2e-09	-2.4%
CC(=O)Oc1c(C)cc(O)c2ccccc12	i	i	4.0%	1e-09	-0.5%

Screens (PubChem)
